# Source: PubChem BioAssay (National Center for Advancing Translational Sciences (NCATS))
# PINK1 expr mod – changes PINK1 expression. AID 624263. PINK1 immunofluorescence, high-content cytometry, 24 h. Potency, µM (series often up to 76.6 µM), for the others: at the top dose activation (PINK1 increase), actives largely listed as activators. 410,000 compounds, 0.2% hits; active = well fitted activation curve with a large enough effect; inconclusive = small, poorly fitted or top-dose-only effect; inactive = flat fitted curve, though single readings scatter; cell line not stated here;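 further: potency means the concentration at half of the fitted maximal effect; % of control where 0% means no effect; nearly all actives have a fitted effect of over 65% in size; a mitochondrial uncoupler was the plate control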
#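 Stable cell line treated 24 h with compounds at 5 concentrations (CCCP controls), then fixed and immunostained for PINK1 plus nuclear and cell stains; PINK1 immunofluorescence quantified by laser-scanning microplate cytometry.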
# D2 agonist – activates the human D2 dopamine receptor. 360,000 compounds, 0.084% hits. DiscoveRx PathHunter D2 beta-arrestin, luminescence, 90 min; 100% = 57 uM dopamine signal. activation, % (no concentration beside the values). AID 624465; in the data active = activation above about 40%; inconclusive = about 15% to 40%; inactive = below about 15%; further: compound concentration not given in the record; the text of the record calls up to 30% inactive
#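 Agonist mode: compounds alone added to overnight-plated D2 PathHunter cells for 90 min at 37 C, with 57 uM final dopamine (EC100) defining full response. Beta-arrestin recruitment detected by chemiluminescent reagent, read after 1 h at ambient temperature.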
# TRPML1 inh – blocks the human TRPML1 channel; Q9GZU1; TRPML1-inducible cells, Ca2+ dye fluorescence, FDSS; stronger effect = lower value; inhibition of EC80 agonist-evoked calcium signal; activity change, negative = inhibition, % (test concentration not listed); 390,000 compounds, 0.02% hits; AID 624415; in the data active means activity change below about -50%; inconclusive means about -30% to -50%; inactive means above about -30%;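 further: stimulus is agonist 54-4 at its EC80 concentration; on the % scale 0 is the no-effect control and ±100 the full control effect; compound concentration not given in the record; the text of the record puts the active cut at -80%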
#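 Calcium fluorescence in TRPML1-DL cells induced overnight with Tet: a 110 s read after compound pin addition, then a 110 s antagonist read after challenge with 54-4 at 4 uM final (EC80).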
# CtBP-E1A inh – inhibitors of CtBP/E1A interaction | AlphaScreen GST-E1A/His-CtBP binding, 1536-well; stronger effect = lower value; control for the full effect not named in the record | activity change, % (no concentration beside the values) | 340,000 compounds, 0.49% hits | AID 651724; in the data active means activity change below about -65%; inconclusive means about -30% to -65%; inactive means above about -30%; further: on the % scale 0 is the no-effect control and ±100 the full control effect
#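 Steps: dispense buffer (Tris pH 8.0, NaCl 300 mM, TCEP 1 mM, BSA, Tween 20); add 5X protein mix (GST-E1A, His-CtBP, 125 nM each); pin 23 nL compound; 2 h at 37 °C, dark; add 5X beads (50 ug/mL); 1 h; read.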
# Six1-Eya2 blk – inhibitors of human Six1/Eya2 interaction; 360,000 compounds, 0.56% hits; activity change, % (concentration not given with the values); AlphaScreen GST-Six1/His-Eya2 binding, biochemical; stronger effect = lower value; control for the full effect not named in the record; Q15475+O00167; in the data active = activity change below about -65%; inconclusive = about -30% to -65%; inactive = above about -30%; further: on the % scale 0 is the no-effect control and ±100 the full control effect
# Target sequence (O00167 whole entry, looked up): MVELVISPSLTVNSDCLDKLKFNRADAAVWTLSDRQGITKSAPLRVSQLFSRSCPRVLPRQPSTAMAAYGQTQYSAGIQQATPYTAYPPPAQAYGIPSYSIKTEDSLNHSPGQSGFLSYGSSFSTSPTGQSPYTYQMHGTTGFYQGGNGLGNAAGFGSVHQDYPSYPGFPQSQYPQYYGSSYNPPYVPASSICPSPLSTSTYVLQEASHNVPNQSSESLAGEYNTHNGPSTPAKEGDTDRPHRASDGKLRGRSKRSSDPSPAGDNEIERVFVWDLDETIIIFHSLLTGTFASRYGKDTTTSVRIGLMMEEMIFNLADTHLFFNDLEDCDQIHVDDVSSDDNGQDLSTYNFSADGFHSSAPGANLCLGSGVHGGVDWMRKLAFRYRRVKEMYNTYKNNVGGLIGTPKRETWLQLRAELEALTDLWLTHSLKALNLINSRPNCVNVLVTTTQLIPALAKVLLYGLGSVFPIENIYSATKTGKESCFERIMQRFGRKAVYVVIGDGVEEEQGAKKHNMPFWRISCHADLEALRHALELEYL
# Target sequence (Q15475 whole entry, looked up): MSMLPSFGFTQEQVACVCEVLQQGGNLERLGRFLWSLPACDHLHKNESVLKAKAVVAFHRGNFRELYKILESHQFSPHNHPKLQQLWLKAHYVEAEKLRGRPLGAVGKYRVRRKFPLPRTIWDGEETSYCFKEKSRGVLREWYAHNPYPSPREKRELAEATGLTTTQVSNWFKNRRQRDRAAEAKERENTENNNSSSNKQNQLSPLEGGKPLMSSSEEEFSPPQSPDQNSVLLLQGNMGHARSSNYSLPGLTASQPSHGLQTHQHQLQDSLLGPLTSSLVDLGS
#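 GST-Six1 + His-Eya2 (5X stock: 250/500 nM); Tris pH 8.0, 300 mM NaCl, 0.05% BSA, 0.02% Tween 20; GSH donor/Ni acceptor beads; 1 h 37 °C dark; AlphaScreen readout.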
# TRPML1 ag – agonists of human TRPML1 channel. 410,000 compounds, 0.12% hits. AID 624414. TRPML1-expressing cells, Ca2+ dye fluorescence, FDSS; host cell line not named in the record; reference of the full effect not given here. activation, % (concentration not given with the values); in the data active = activation above about 50%; inconclusive = about 30% to 50%; inactive = below about 30%; further: 0% is about no effect; the text of the record puts the active cut at 80%
#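 Tetracycline-induced TRPML1-DL cells are seeded and incubated overnight before loading with a no-wash Ca2+ dye and quencher. Agonist activity is taken from the 110 s fluorescence read following compound pin-transfer on an FDSS, before EC80 54-4 challenge.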
# The depositor's hits bear a star; ? = inconclusive; · = not tested or not shown; & = joins results of further samples; [ ] = another dose, or the depositor's remark. No enrichment for hits (roughly 1% active in at least one column).
molecule	PINK1 expr mod	D2 agonist	TRPML1 inh	CtBP-E1A inh	Six1-Eya2 blk	TRPML1 ag
O=C(Nc1ccc(F)cc1F)C1CCCN1S(=O)(=O)c1ccc(-c2ccc(=O)[nH]n2)s1 (stereo unspecified)	0.8%	-1.0	19	-20	-3	0.1
COc1ccccc1/C=C/C(=O)OCC(=O)Nc1cc(C(F)(F)F)ccc1N1CCOCC1	5.0%	-4.7	49	-10	7	3.0
CCOC(=O)N1CCN(C(=O)c2ccc3c(c2)N(Cc2ccccc2F)C(=O)c2ccccc2S3(=O)=O)CC1	1.1%	·	15	·	·	-1.0
Cc1cccc(C(=O)NCC(=O)NCC2COc3ccccc3O2)c1 (stereo unspecified)	-0.3%	-4.0	2	7	2	-0.8
COc1cccc(CNC(=O)Cn2ccc3cc(S(=O)(=O)N4CCCCCC4)ccc32)c1	1.6%	-2.9	-17	-7	3	1.4
O=C(CCCCCn1c(=S)[nH]c2ccsc2c1=O)NC1CCCCC1	1.4%	-2.8	-5	·	17	0.0
O=C(Nc1ccccc1)Nc1ccc(C(F)(F)F)cn1	1.4%	3.1	39	·	-1	0.6
O=C(NC1CC1)C1CC(=O)N(c2ccccc2)C1 (stereo unspecified)	-0.6%	5.6	15	3	16	0.1
Cc1c(NC(=O)CSc2nnnn2-c2ccc(F)cc2)c(=O)n(-c2ccccc2)n1C	-1.8%	-2.7	1	10	-9	-0.1
Cc1ccc(S(=O)(=O)Nc2ccc(NC(=O)c3ccc(F)cc3)cc2)cc1	2.9%	2.5	-1	·	26	-0.1
Cc1ccc(C)c(NC(=O)CSC2=Nc3ccccc3N=C(c3ccc(F)cc3)C2)c1	4.7%	·	-8	·	·	-0.3
Cc1ccc(S(=O)(=O)NC[C@H]2O[C@@H](n3cnc4c(N)ncnc43)[C@H](O)[C@@H]2O)cc1	0.9%	-4.7	-13	10	3	0.1
O=C1N[C@@H](Cc2ccccc2)C(=O)N2[C@@H]3N(S(=O)(=O)c4ccc(F)cc4)c4ccccc4[C@]3(Br)C[C@@H]12	-0.9%	-0.7	-13	·	1	0.1
COC(=O)c1ccccc1NC(=O)COC(=O)CSc1nnc(N)s1	0.2%	-2.6	8	·	3	1.8
Cn1c(C(=O)OC(C(=O)NC2CCCCC2)c2ccncc2)cc2sccc21 (stereo unspecified)	-3.6%[38.3 µM]	-1.6	-1	-8	0	1.4

# An excerpt of these results, with each value named:
COc1ccccc1/C=C/C(=O)OCC(=O)Nc1cc(C(F)(F)F)ccc1N1CCOCC1
- PINK1 expr mod: 5.0%
- D2 agonist: -4.7
- TRPML1 inh: 49
- CtBP-E1A inh: -10
- Six1-Eya2 blk: 7
- TRPML1 ag: 3.0
CCOC(=O)N1CCN(C(=O)c2ccc3c(c2)N(Cc2ccccc2F)C(=O)c2ccccc2S3(=O)=O)CC1
- PINK1 expr mod: 1.1%
- D2 agonist: ·
- TRPML1 inh: 15
- CtBP-E1A inh: ·
- Six1-Eya2 blk: ·
- TRPML1 ag: -1.0
Cc1cccc(C(=O)NCC(=O)NCC2COc3ccccc3O2)c1 (stereo unspecified)
- PINK1 expr mod: -0.3%
- D2 agonist: -4.0
- TRPML1 inh: 2
- CtBP-E1A inh: 7
- Six1-Eya2 blk: 2
- TRPML1 ag: -0.8
COc1cccc(CNC(=O)Cn2ccc3cc(S(=O)(=O)N4CCCCCC4)ccc32)c1
- PINK1 expr mod: 1.6%
- D2 agonist: -2.9
- TRPML1 inh: -17
- CtBP-E1A inh: -7
- Six1-Eya2 blk: 3
- TRPML1 ag: 1.4

# Continued:
molecule	PINK1 expr mod	D2 agonist	TRPML1 inh	CtBP-E1A inh	Six1-Eya2 blk	TRPML1 ag
COCCCN(Cc1ccco1)C(=O)Cn1ncc2c([nH]c3ccccc32)c1=O	4.5%	-15	-7	-2	-7	-0.5
O=C(NCc1ccccc1)c1ccc2c(c1)C(=O)N(CC1CCCO1)C2=O (stereo unspecified)	-2.0%	3.5	-12	-12	-1	0.0
O=C(CN1CCN(S(=O)(=O)c2cccc(Br)c2)CC1)NCCc1cccs1	-1.1%	-0.4	-1	0	-1	-0.1
CS(=O)(=O)Nc1nnc(C2CCCC2)s1	1.1%	-0.8	-12	-7	-1	1.2
CC(C)N(Cc1nc(-c2ccc(Cl)cc2)no1)C(=O)/C=C/c1ccccc1	0.8%	-5.1	22	0	21	2.8
O=C(Cn1c(=O)oc2cc(S(=O)(=O)N3CCCC3)ccc21)N1CCN(c2ccccc2F)CC1	9.3%	-1.0	1	5	1	-0.5
Cc1nnc(SCc2ccccc2)n1CC1CCCO1 (stereo unspecified)	1.2%	-2.3	-1	2	1	-0.1
Cc1nnc(NC(=O)CSc2nccn2-c2ccc(F)cc2)s1	1.9%	-3.1	15	-20	1	-0.2
Cc1cccc(S(=O)(=O)N(C)C[C@H]2OCc3cnnn3CCCC(=O)N([C@H](C)CO)C[C@@H]2C)c1	3.3%	-1.9	12	2	10	-0.4
COc1ccccc1N(C)C(=O)c1cc(S(=O)(=O)N2CCc3ccccc32)cn1C	1.6%	-3.4	-9	4	3	0.3
CC1(C)Cc2c(cnn2-c2ccccc2)C(=O)/C1=N\NC(=O)c1ccccc1N	?	-1.1	-6	43	15	-0.6
N/N=c1\sc2ccccc2n1-c1ccccc1	-0.4%	-3.1	-10	0	-4	-0.5
O=C(C1CCCO1)N1CCN(C(=S)Nc2ccccc2C(F)(F)F)CC1 (stereo unspecified)	3.8%	-7.8	-15	-12	5	-0.1
O=C(Cn1cnc2c(NCc3ccccc3)ncnc21)NCCCN1CCCC1=O	1.0%	-2.2	2	2	1	-0.7
COc1ccc(-c2ncncc2-c2ccc(OC)c(OC)c2)c(O)c1	2.3%	-0.4	-2	-19	-19	0.4

# Further records.
molecule	PINK1 expr mod	D2 agonist	TRPML1 inh	CtBP-E1A inh	Six1-Eya2 blk	TRPML1 ag
O=S(=O)(Cc1ccccc1)Nn1cnnc1	1.3%[38.3 µM]	-0.6	-6	7	2	1.3
CC1CC1c1ccc(/C=C(\C#N)C(=O)Nc2ccc(Cl)cc2Cl)o1 (stereo unspecified)	3.2%	-2.4	7	0	2	1.0
CCc1ccc(S(=O)(=O)NCc2ccc(C(=O)NCCN(Cc3ccccc3)C(C)C)cc2)cc1	3.6%	-4.0	-11	0	-6	0.2
COC(c1ccccc1)c1nnc(CCC(=O)N2CCN(Cc3cccs3)CC2)o1 (stereo unspecified)	1.6%	-4.5	-1	-3	0	-0.6
O=c1[nH]cc(I)cc1I	0.8%	2.2	-3	·	-1	-0.5
Cc1cccc(N(C(=O)c2ccc(CN3CCOCC3)o2)C(C(=O)NC2CCCCC2)c2ccc(F)cc2)c1 (stereo unspecified)	2.3%	-4.1	20	-1	0	-0.5
Cc1ccc(-n2cccc2/C=C2/NC(=O)N(CC(=O)Nc3cccc(C)c3)C2=O)cc1	14%	-0.4	38	1	0	-0.4
NC(=O)c1c(N)sc2c1CCCC2	1.2%	1.9	-1	0	-8	0.3
CCCN(CCC)CCNC(=O)Cn1cc2c(n1)-c1c(oc(C(=O)N3CCCC3)c1C)CC2	0.1%&-0.2%	-1.7	5&1	0	-7	-0.4&0.5
CCOC(=O)c1cccc(NC(=O)C2(S(=O)(=O)c3ccc(C)cc3)CC2)c1	1.6%&6.3%	-2.6	5&27	-16	13	6.0&2.3
COc1ccc(N(CC(=O)Nc2ccc3c(c2)OCO3)S(=O)(=O)c2ccccc2)c(OC)c1	0.6%	-3.4	-4	-20	-17	1.8
COc1ccc(C(=O)N=C2SC3CS(=O)(=O)CC3N2Cc2ccc(OC)c(OC)c2)cc1 (stereo unspecified)	4.7%	-0.7	-15	·	-5	0.4
COc1ccc(-c2cc(NC=O)c3ncc(-c4ccc(OC)c(OC)c4)n3c2)c(OC)c1	2.7%	-1.1	·	?	-23	-0.8
COc1ccc(OCC(=O)Nc2nnc3n2CCS3)cc1	-4.1%	·	7	·	·	-0.1
CCOc1ccc(Nc2nc(C)cc(C)c2C#N)cc1	3.6%[38.3 µM]	0.2	4	17	8	0.4

# Arranged by length of the SMILES (low to high): part of the list above.
molecule	PINK1 expr mod	D2 agonist	TRPML1 inh	CtBP-E1A inh	Six1-Eya2 blk	TRPML1 ag
NC(=O)c1c(N)sc2c1CCCC2	1.2%	1.9	-1	0	-8	0.3
COc1ccccc1/C=C/C(=O)OCC(=O)Nc1cc(C(F)(F)F)ccc1N1CCOCC1	5.0%	-4.7	49	-10	7	3.0
Cc1cccc(S(=O)(=O)N(C)C[C@H]2OCc3cnnn3CCCC(=O)N([C@H](C)CO)C[C@@H]2C)c1	3.3%	-1.9	12	2	10	-0.4

# Whole records, quoted from the list.
# O=C(C1CCCO1)N1CCN(C(=S)Nc2ccccc2C(F)(F)F)CC1 (stereo unspecified) across the screens: PINK1 expr mod: 3.8%; D2 agonist: -7.8; TRPML1 inh: -15; CtBP-E1A inh: -12; Six1-Eya2 blk: 5; TRPML1 ag: -0.1
# O=C(CCCCCn1c(=S)[nH]c2ccsc2c1=O)NC1CCCCC1 across the screens: PINK1 expr mod: 1.4%; D2 agonist: -2.8; TRPML1 inh: -5; CtBP-E1A inh: ·; Six1-Eya2 blk: 17; TRPML1 ag: 0.0

# (list continues)
molecule	PINK1 expr mod	D2 agonist	TRPML1 inh	CtBP-E1A inh	Six1-Eya2 blk	TRPML1 ag
O=[N+]([O-])c1ccc(OCCN2CCCCCC2)cc1	3.1%	-0.5	-7	0	0	0.0
Cc1cc2ncc(-c3ccc(Cl)cc3)c(N)n2n1	0.9%	-5.2	41	0	-7	-1.3
COc1ccc(-c2cn3cccnc3n2)cc1NC(=O)Nc1cc(C)ccc1C	-1.4%	·	-13	·	·	0.9
CC(C)c1ccc(OCC(=O)NCc2ccccc2)cc1	2.8%	-1.2	13	7	13	1.9
Cc1ccc(NC(=O)C2(C)CCN2C(=O)Cc2cc(F)ccc2F)cc1 (stereo unspecified)	2.6%	-1.6	·	8	1	-0.7
O=C(O)COc1cccc2ccccc12	?	0.9	3	8	-1	-0.2
COc1ccc(S(=O)(=O)NC2(C(F)(F)F)N=C3SCCN3C2=O)cc1 (stereo unspecified)	-0.6%	-0.6	-4	4	2	0.7
O=C(NCCN1CCCOC1=O)C(=O)NCCN1CCCOC1=O	-0.4%	-4.9	-9	·	7	-0.4
CCN(CC)C(=O)CSc1nnc2nnc3cc(Cl)ccc3n12	28%	?	37	-3	1	1.9
CCC1CCCCN1C(=O)CSc1n[nH]c(-c2ccccc2Cl)n1 (stereo unspecified)	0.5%	·	-8	·	·	0.2
Cc1cc(Cl)ccc1NC(=S)NCc1ccccc1Cl	?	2.7	-28	3	-10	0.8
C/C(CC(=O)NCc1ccco1)=N\NC(=O)Cc1ccc(Cl)cc1	-1.1%	-1.3	8	-2	-4	-0.6
